HSV augment: enhancers of HSV replication in host cells, fold increase, host cell viability; HSV replication augmentation in cells; maximum fold increase; 0.005% of 220,000 active; AID 1956, 2009;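 active = peak rise of 1.5-fold or more in the series; inconclusive = self-fluorescent or not available for retest; tested in PC3 cells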;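 note: first round at 10 µM; read as green reporter fluorescence; hits show the peak of a series up to 25 µM; 1 = signal of infected wells without compound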
GALR2 agonist: GALR2 receptor agonists, primary screen, cell-based; Galanin receptor type 2 (Homo sapiens), O43603; GALR2-expressing cells, agonist activation read-out; activation, %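 (tested at 5 µM)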; 0.48% of 140,000 active;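 active = above mean plus 3 SD of all compounds, about 5% in these data, not always enough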;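 note: 0% = vehicle buffer wells and 100% = reference agonist at full effect; tested in CHO reporter cells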
Target sequence (O43603 whole entry, looked up): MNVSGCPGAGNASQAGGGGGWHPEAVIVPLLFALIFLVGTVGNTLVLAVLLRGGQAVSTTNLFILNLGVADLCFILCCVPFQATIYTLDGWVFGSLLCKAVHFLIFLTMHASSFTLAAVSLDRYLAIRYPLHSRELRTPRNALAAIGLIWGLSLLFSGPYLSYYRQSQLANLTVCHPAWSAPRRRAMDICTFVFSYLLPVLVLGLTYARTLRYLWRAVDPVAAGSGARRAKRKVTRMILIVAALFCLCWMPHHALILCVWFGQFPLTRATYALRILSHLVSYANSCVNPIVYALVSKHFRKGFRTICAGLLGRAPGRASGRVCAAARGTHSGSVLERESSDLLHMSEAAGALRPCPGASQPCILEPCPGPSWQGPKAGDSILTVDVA
PKD1 inh: inhibitors of human PKD1 kinase, biochemical, fluorescence polarization | Serine/threonine-protein kinase D1 (Homo sapiens), Q15139 | 0.056% of 200,000 active | AID 797, 2007 | inhibition, %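 (about 10 µM by stock and volumes)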 | PKD1 kinase fluorescence polarization assay;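 active = inhibition of 50% or more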;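 note: controls were vehicle for no effect and a reference inhibitor for full effect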
RGS16-Gao HTS: modulators of RGS16 binding to Galphao, primary screen, biochemical, human proteins, multiplexed bead flow cytometry | bead-based flow cytometry RGS16-Galphao binding, fluorescence; actives lie on both sides | binding response (% of control), % at 10 µM | 0.38% of 220,000 active | Regulator of G-protein signaling 16 (Homo sapiens) + Guanine nucleotide-binding protein …;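 active = below 25% or above 175%, edge rows of some plates excepted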;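 note: Galphao activated by GDP with aluminum fluoride before binding; 100% = wells without compound and 0% = beads without RGS; some results beyond the cut were filed as inactive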
Target sequence (O15492 whole entry, looked up): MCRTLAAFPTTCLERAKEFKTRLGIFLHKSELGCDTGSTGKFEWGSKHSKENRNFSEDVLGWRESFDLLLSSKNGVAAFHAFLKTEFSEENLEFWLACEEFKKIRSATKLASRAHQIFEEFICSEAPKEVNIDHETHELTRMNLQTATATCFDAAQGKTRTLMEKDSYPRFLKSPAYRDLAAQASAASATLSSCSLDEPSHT
Target sequence (P09471 whole entry, looked up): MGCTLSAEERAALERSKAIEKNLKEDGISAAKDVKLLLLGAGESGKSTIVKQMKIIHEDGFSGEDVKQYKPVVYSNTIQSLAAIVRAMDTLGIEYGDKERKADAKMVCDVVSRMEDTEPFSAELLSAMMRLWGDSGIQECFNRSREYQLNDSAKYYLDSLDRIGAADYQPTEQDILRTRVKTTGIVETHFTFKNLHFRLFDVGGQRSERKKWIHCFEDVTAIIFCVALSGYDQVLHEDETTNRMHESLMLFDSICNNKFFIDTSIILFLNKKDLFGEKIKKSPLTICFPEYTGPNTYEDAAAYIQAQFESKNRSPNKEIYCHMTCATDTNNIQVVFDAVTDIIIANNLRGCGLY
INS promoter inh: inhibitors of insulin promoter-driven GFP, primary screen, imaging, TRM-6 cells (human fetal islet line), eGFP reporter, cell count | reporter expression induced with tamoxifen | inhibition, % at 2 µM | 0.9% of 130,000 active;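 active = inhibition above the mean plus 3 SD, with well images judged a real hit on visual review, cut at about 60% in these data, passing the limit was not always enough; inconclusive = inhibition over the cutoff but images rejected on review; inactive = inhibition not above the cutoff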
INS promoter inh cell count: recorded beside INS promoter inh, whose call it bears; normalized cell count, %; measured here: cell count, toxicity; reference of the scale not given here;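 cells exposed to compound for 48 h; stained nuclei by imaging scaled within each plate; lower means fewer cells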
HSV augment primary fold: recorded beside HSV augment, whose call it bears; fold increase; compound at 10 µM; measured here: primary screen fold increase 10 uM; tested in PC3 cells;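 GFP signal in the first replicate; 1 = infected wells without compound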
* marks the source's active call; other numbers are inactive results; i = inactive; ? = inconclusive; nt = no result given.

SMILES	HSV augment	HSV augment primary fold	GALR2 agonist	PKD1 inh	RGS16-Gao HTS	INS promoter inh	INS promoter inh cell count
CC(C)COP(=O)(c1ccc(N(C)C)cc1)C(O)c1ccccn1 (stereo unspecified)	i	1.02	-1.5	-5.2	98.5	nt	nt
O=C(COC(=O)c1cc(-c2cccs2)nn1-c1ccccc1)Nc1ccc(Cl)c([N+](=O)[O-])c1	i	1.1	-0.2	10.1	41.4	-5.9	72.1
O=C(CSc1nnc(-c2cccs2)n1-c1ccccc1)NCc1ccc2c(c1)OCO2	i	0.89	-1.0	-11.4	120.3	-381.2	79.7
CCN(CC)S(=O)(=O)c1cccc(C(=O)N2CC(O)CC2C(=O)OC)c1 (stereo unspecified)	i	0.89	-0.1	-5.4	105.9	13.5	125.0
CCOc1ccc(Cl)cc1S(=O)(=O)N1CCN(c2ccc(F)cc2)CC1	i	0.94	-1.7	-6.5	104.1	-220.0	154.7
Cc1ccc(CNC(=O)C(Cc2ccccc2)n2cccc2)cc1 (stereo unspecified)	i	1	nt	nt	98.3	nt	nt
Nc1nc(-c2ccccc2)[nH]c(=O)c1N	i	0.91	0.0	2.9	240.6	0.0	109.4
O=C(Cn1nnc2ccccc21)OCC(=O)c1ccccc1	i	0.88	-0.6	-6.4	98.5	31.2	104.4
Cc1cc(SCCOc2ccc(Br)cc2)nc(N)n1	i	0.947	-0.2	2.8	100.5	-16.1	80.3
CC(NC(=O)c1ccc(Cl)cc1Cl)C(c1ccccc1)N1CCOCC1 (stereo unspecified)	i	1	nt	-4.7	105.5	-16.7	128.7
COc1cccc(/C=N\NC(=O)c2ccc(Cn3cc(Br)c([N+](=O)[O-])n3)o2)c1O	i	0.67	nt	0.8	92.0	26.7	104.1
CCOC(=O)c1ccc(COC(=O)CNS(=O)(=O)c2ccccc2)cc1	i	1.01	nt	7.4	102.6	nt	nt
CC1CCCN(c2nc3c(c(=O)[nH]c(=O)n3C)n2CCCc2ccccc2)C1 (stereo unspecified)	i	0.87	0.8	-2.8	100.9	-85.7	69.8
Cc1ccc(S(=O)(=O)CCN2C=CC(C(F)(F)F)=NCC2)cc1	i	1	nt	nt	94.3	nt	nt
CC(C)CC(=O)Nc1cc2nn(-c3ccccc3)nc2cc1Cl	i	0.81	-3.7	5.0	100.0	nt	nt
O=C(CCN1CCN(C/C=C/c2ccccc2)CC1)Nc1ccccc1F	i	0.96	0.2	-14.1	95.7	40.5	111.2
CCN(CC)S(=O)(=O)c1ccc2nc(CSc3nnnn3-c3ccc(O)cc3)[nH]c2c1	i	0.89	-0.9	-6.5	100.6	32.3	42.8
COC(=O)NNC(=O)C(C)Oc1ccc(Cl)cc1Cl (stereo unspecified)	i	0.76	-0.8	-0.2	116.9	36.7	132.7
Oc1cc(OCc2ccccc2)ccc1-c1[nH]ncc1-c1ccccc1	i	0.92	nt	nt	105.6	nt	nt
CCOC(=O)C1=C(CSc2nc(CC)c(C)cc2C#N)OC(N)=C(C#N)C1c1ccc(OC)cc1 (stereo unspecified)	i	0.92	-0.6	-10.3	43.7	-43.8	86.7
Fc1ccc(CN2CCN(c3ncccn3)CC2)cc1	i	0.74	-1.6	-2.6	96.3	-32.3	131.7
Cc1noc(C)c1C(=O)Nc1ccccc1-c1ccccc1	i	1.01	-1.0	-0.5	128.6	47.6	97.5
Cc1ccc2c(c1)CCCN2C(=O)c1ccncc1	i	1.01	-2.4	-8.0	101.8	10.3	157.2
NC(=O)c1ccccc1N/C=C/C(=O)c1ccc(Cl)cc1	i	0.94	1.4	-1.1	100.8	5.6	160.7
COc1ccc(C)cc1S(=O)(=O)N(C)CC(=O)NCc1ccco1	i	0.92	-1.2	-4.5	100.5	25.0	114.6
CSCC[C@H](NC(=O)CC(C)(C)C)c1nc2ccccc2[nH]1	i	1.05	-3.0	-9.7	104.5	7.0	115.2
Cc1ccc(S(=O)(=O)CCC#N)cc1	i	0.83	nt	nt	96.8	nt	nt
CCN(CC)c1ccc2cc(C(N)=O)c(=N)oc2c1	?	nt	nt	-4.8	101.2	nt	nt
O=C(Nc1ccc(S(=O)(=O)NC2CCCC2)cc1)c1cnccn1	i	1.14	-2.7	1.9	102.5	-19.4	49.6
COc1ccc(Cn2nnnc2C(c2cc3cccc(C)c3[nH]c2=O)N2CCOCC2)cc1 (stereo unspecified)	i	0.91	-4.8	-16.8	101.7	nt	nt
CC1(C)C(C=C(Cl)Cl)C1C(=O)N(Cc1ccccc1Cl)C1CCS(=O)(=O)C1 (stereo unspecified)	i	0.86	-0.3	-7.2	99.9	-85.7	145.3
Cc1ccsc1/C=N/NC(=O)c1ccc2c(c1)OCCO2	i	0.99	nt	nt	103.5	nt	nt
CC1(C)CNC(=O)CC(C)(C)N1O	i	0.78	-1.3	3.3	9.4	-33.3	262.4
O=C(Nc1ccccc1)c1ccc(S(=O)(=O)N2CCOCC2)cc1	i	0.97	-1.8	-3.2	100.3	40.7	45.0
N#CC1=C(N)Oc2n[nH]c(-c3cccs3)c2C1c1ccncc1 (stereo unspecified)	i	0.89	nt	3.9	101.5	-66.7	122.4
COc1ccccc1NC(=O)c1cc2c(=O)n(C)c3ccccc3c2n1C	i	0.93	nt	nt	89.4	nt	nt
CN1CCN(Cc2nc3ccccc3c(=O)n2Cc2nc(-c3ccc4ccccc4c3)cs2)CC1	i	0.68	7.7*	0.5	112.0	nt	nt
O=C(Nc1cnn(Cc2ccccc2)c1)c1cc2nc(-c3ccco3)cc(C(F)(F)F)n2n1	i	0.91	-0.2	-5.1	98.4	-11.5	138.4
Cc1nc2cc3sc(C)nc3cc2s1	i	0.86	nt	-4.7	94.9	nt	nt
C=C(C)CNC(=S)Nc1cccc(N)n1	i	1.1	nt	-4.0	99.0	nt	nt
CCOC(=O)c1[nH]c2cc3c(cc2c1NC(=O)CN1CCc2ccccc2C1)OCO3	nt	nt	-1.2	2.9	99.8	nt	nt
CCN(CC)C(=O)c1c(-c2ccccc2)oc2ccc(OC)cc12	i	1	-1.5	-11.8	103.4	-21.4	89.6
CC1CN(Cc2nc3c(c(=O)n(C)c(=O)n3C)n2CCCO)CC(C)O1 (stereo unspecified)	i	1.16	-2.4	4.1	105.0	nt	nt
Cc1ccc(SCC(=O)Nc2ncc(C)s2)cc1	i	0.87	-1.1	-11.2	76.7	-22.9	20.6
CCOc1ccccc1-n1nnnc1SCC(=O)NCc1ccco1	i	1.04	nt	5.6	99.4	-60.0	85.7
CS(=O)(=O)N(CC(=O)NC1CC2CCC1C2)c1ccc(Oc2ccccc2)cc1 (stereo unspecified)	i	0.89	nt	-1.8	104.1	33.3	124.9
O=C(Cc1cccs1)N(c1ccccc1)C1C=CS(=O)(=O)C1 (stereo unspecified)	i	0.89	0.2	-6.2	96.5	36.1	116.3
Cc1ccc(/C=N/NC(=O)C[n+]2ccccc2)s1	i	0.97	nt	nt	100.3	nt	nt
Cc1cccc(C)c1NC(=O)C1(NC(=O)c2cnccn2)CCCCC1	i	0.91	nt	-11.4	102.5	nt	nt
COc1cc(OC)cc(C(=O)N2CCN(C(=O)COc3ccc4ccccc4c3)CC2)c1	i	0.96	-2.7	8.7	109.6	6.5	89.0
O=C(c1cc(COc2ccc(F)cc2Cl)on1)N1CCc2ccccc2C1	i	1	nt	-1.7	103.1	nt	nt
NS(=O)(=O)c1ccc(NC(=O)COC(=O)CCNC(=O)NC23CC4CC(CC(C4)C2)C3)cc1	i	1.16	-1.9	-7.3	51.1	nt	nt
N#Cc1ccc(C23CC4(C2)[C@H](CN(Cc2ccc(C(F)(F)F)cc2)[C@@H]4c2ccccc2)C3c2ccc(C(F)(F)F)cc2)cc1 (stereo partly specified)	i	0.885	nt	nt	102.7	nt	nt
CCCn1c(SCC(=O)Nc2ccc(S(=O)(=O)N(C)C)cc2)n[nH]c1=O	i	0.86	nt	-2.5	71.7	16.7	43.2
O=C(C1CC1)N(Cc1ccco1)c1nc(-c2ccccc2)cs1	i	1.07	-1.6	0.8	103.7	-2.7	81.7
CN=C1SC(CC(=O)Nc2cccc(Cl)c2Cl)C(=O)N1C (stereo unspecified)	i	0.897	-0.8	-10.6	-51.8	nt	nt
Cc1cccc(C(=O)Oc2ccc(/C=N/NC(=O)c3ccncc3)cc2)c1	i	0.93	nt	-2.1	102.4	-40.0	120.4
CCCCOC(=O)NCN1C(=O)C2C3C=CC(C3)C2C1=O (stereo unspecified)	i	1.01	-0.8	6.3	58.2	31.4	87.6
O=C(Nc1cc(Cl)cc(Cl)c1)N1CCCC1	i	0.97	nt	nt	88.3	nt	nt
Cc1ccn2c(C(=O)CSc3ccc(Cl)cc3Cl)c(C)nc2c1	i	1	-1.2	6.1	82.8	-20.0	90.0

3 entries already listed, ordered by length of the SMILES, falling:
SMILES	HSV augment	HSV augment primary fold	GALR2 agonist	PKD1 inh	RGS16-Gao HTS	INS promoter inh	INS promoter inh cell count
CCOC(=O)c1[nH]c2cc3c(cc2c1NC(=O)CN1CCc2ccccc2C1)OCO3	nt	nt	-1.2	2.9	99.8	nt	nt
CC1CN(Cc2nc3c(c(=O)n(C)c(=O)n3C)n2CCCO)CC(C)O1 (stereo unspecified)	i	1.16	-2.4	4.1	105.0	nt	nt
Cc1ccn2c(C(=O)CSc3ccc(Cl)cc3Cl)c(C)nc2c1	i	1	-1.2	6.1	82.8	-20.0	90.0

The listing picks up, repeating the four entries before the break.
SMILES	HSV augment	HSV augment primary fold	GALR2 agonist	PKD1 inh	RGS16-Gao HTS	INS promoter inh	INS promoter inh cell count
Cc1cccc(C(=O)Oc2ccc(/C=N/NC(=O)c3ccncc3)cc2)c1	i	0.93	nt	-2.1	102.4	-40.0	120.4
CCCCOC(=O)NCN1C(=O)C2C3C=CC(C3)C2C1=O (stereo unspecified)	i	1.01	-0.8	6.3	58.2	31.4	87.6
O=C(Nc1cc(Cl)cc(Cl)c1)N1CCCC1	i	0.97	nt	nt	88.3	nt	nt
Cc1ccn2c(C(=O)CSc3ccc(Cl)cc3Cl)c(C)nc2c1	i	1	-1.2	6.1	82.8	-20.0	90.0
CCCCC(CC)CNC(=O)CC1Nc2c3ccccc3nc(=S)n2C1=O (stereo unspecified)	i	1.01	nt	-0.3	99.7	nt	nt
CCCn1c(C)cc(C(=O)Cn2nnc3ccccc3c2=O)c1C	i	0.89	nt	-0.1	97.2	nt	nt
CC(C)CSC1=NSC2=NC(=O)/C(=C\c3ccccc3)C(=N)N12	i	1.13	nt	0.7	100.9	0.0	94.4
COc1cccc(SCC2(O)CCN(C(=O)c3ccc(Cl)cc3)CC2)c1	i	1.05	nt	5.3	103.3	46.1	73.6
O=C(Nc1ccc(N2CCCCC2)c(Cl)c1)c1ncn[nH]1	i	0.96	-2.1	-5.9	96.4	nt	nt
Cc1ccc(OCC(=O)N2CCN(S(=O)(=O)c3ccccc3)CC2)c([N+](=O)[O-])n1	i	1.07	-0.3	-18.5	103.9	16.1	93.3
COc1cc(OC)cc(C(=O)N2CCN(C(=O)c3cccc(F)c3)CC2)c1	i	0.907	-4.7	5.7	84.7	-54.3	203.6
CCN(CC)CCNC(=O)c1ccc(NS(=O)(=O)c2ccc3c(c2)OCCO3)cc1	i	1.03	nt	-1.9	99.8	nt	nt
CS(=O)(=O)c1ccc(SCC(=O)NC2CCS(=O)(=O)C2)c([N+](=O)[O-])c1 (stereo unspecified)	i	1.01	nt	-8.6	89.9	nt	nt
COc1ccc(C2/C=C\CN(C(=O)Nc3ccc(C(F)(F)F)cc3)CC(=O)N2Cc2ccc(F)cc2)cc1 (stereo unspecified)	i	0.89	nt	nt	105.6	nt	nt
COc1ccc(NC(=O)CSc2nccn2-c2ccccc2)cc1	i	1.01	-4.5	-2.9	104.1	-8.7	80.2
O=C(NCCCn1ccnc1)c1ccc(S(=O)(=O)N2CCOCC2)cc1	i	1	nt	0.7	100.8	nt	nt
Cn1ccnc1SCCNC(=O)CCc1nnc(CCCCc2ccccc2)o1	i	0.94	nt	-1.8	101.4	nt	nt
COc1ccc(-c2nc(CN3CCCCC3c3nccn3C)c(C)o2)c(C)c1C (stereo unspecified)	i	0.86	nt	-2.0	111.5	-52.4	102.8
CC(CCc1ccccc1)NC(=O)c1cccs1 (stereo unspecified)	i	0.99	-1.3	3.2	97.1	23.3	82.2
Cn1ncc2c(Nc3cccc(Cl)c3)nc(Nc3cccc(Cl)c3)nc21	i	0.83	nt	nt	90.2	nt	nt
COc1ccc2c(CC(=O)N3CCN(S(=O)(=O)c4cccs4)CC3)coc2c1	i	0.94	0.2	3.8	96.1	nt	nt

Screens deposited in PubChem by several laboratories.
